Bioassay records from PubChem BioAssay.
Sa growth inh: S. aureus growth inhibition at 42 and 30 °C, primary screen, LtaS inhibitor project, RN4220, two temperatures. OD600, 20 h, 42 °C; active compounds read low. relative growth, % (concentration not given with the values). actives 0.53% (n = 170,000). AID 720641, 2013;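 active = growth at 42 °C up to 50% and 20 or more points under that at 30 °C, or under 10% at both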;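 note: 300 nL library stock went into each well; scaled to the means of positive and negative controls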
HCMV UL50-53 inh: inhibitors of HCMV UL50-UL53 interaction, biochemical, HTRF; normalized percent inhibition; inhibition, % (concentration not given with the values); actives 0.15% (n = 190,000); AID 1918969, 2023;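 active = both replicates at 50% or more, plus weaker picks with an unusually low signal ratio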;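 note: stock transfer was 100 nL into about 20 µL; 0% = negative control wells and 100% = wells with untagged competitor protein; inactives centre near -12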
GIV-Gai inh: inhibitors of GIV peptide binding to Galpha-i3, primary screen, biochemical, fluorescence polarization, FITC-GIV GBA peptide, rat Galphai3 | Guanine nucleotide-binding protein G(i) subunit alpha-3 (Rattus norvegicus), P08753 | 90 min; active compounds read low; scaled: aluminum fluoride 0%, vehicle 100% | percent of control (FP), % (test concentration not listed) | actives 0.42% (n = 210,000) | AID 1224905, 2016;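 active = replicate mean at 85% of control or lower, very high polarization wells dropped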;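 note: lower values mean more displacement of the GIV peptide from Galpha-i3; wells of about 15 µL received 100 nL stock; the first replicate is given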
Target sequence (P08753 whole entry, looked up): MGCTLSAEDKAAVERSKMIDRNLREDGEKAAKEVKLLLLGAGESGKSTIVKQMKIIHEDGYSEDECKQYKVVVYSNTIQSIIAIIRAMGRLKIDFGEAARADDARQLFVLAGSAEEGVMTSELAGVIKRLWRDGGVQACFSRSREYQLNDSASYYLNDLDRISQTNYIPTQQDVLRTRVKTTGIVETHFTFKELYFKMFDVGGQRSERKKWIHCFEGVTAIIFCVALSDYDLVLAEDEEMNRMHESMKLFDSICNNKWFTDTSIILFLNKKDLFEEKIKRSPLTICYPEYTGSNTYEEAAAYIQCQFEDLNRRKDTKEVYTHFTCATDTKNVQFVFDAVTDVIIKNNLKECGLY
Sa growth inh second temp: also measured in Sa growth inh; calls as there; relative growth, %; measured here: growth at 30 °C;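 optical density after 20 h as mean of two plates; 100% = untreated growth and lower means inhibition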
* = called active by the depositor; nt = no result given; & = joins results of further samples.

Labels used below: A = Sa growth inh; B = Sa growth inh second temp; C = HCMV UL50-53 inh; D = GIV-Gai inh
CCC(C)NC(=O)c1sc2nc(C)c(C(=O)Nc3ccc(C)cc3C)c(-c3ccc(Br)cc3)c2c1N (stereo not drawn)
  A: 107.9	B: 94.8	C: -2.0	D: 104.1

Cc1cccc(N2C(=O)c3ccc(Oc4ccc5c(c4)C(=O)N(c4cccc(C)n4)C5=O)cc3C2=O)n1
  A: 98.1	B: 79.9	C: -13.0	D: 97.6

CS(=O)(=NC(=O)Nc1ccccc1)c1ccsc1 (stereo not drawn)
  A: 92.6	B: 85.9	C: -28.1	D: 99.2

Brc1ccc(-c2[nH]c(-c3cccnc3)nc2-c2ccccc2)cc1
  A: nt	B: nt	C: -16.1	D: 101.5

CC1=NN(C(=O)c2ccccc2)C(O)(C(F)(F)OC(F)(F)F)C1 (stereo not drawn)
  A: 80.3	B: 64.0	C: -24.2	D: 100.7

CCC(C)NC(=O)Cc1n[nH]c(=O)c2ccccc12 (stereo not drawn)
  A: 110.7	B: 99.9	C: 7.3	D: nt

Cc1c(NC(=O)C(Cc2ccccc2)N2C(=O)C3C4C=CC(C4)C3C2=O)c(=O)n(-c2ccccc2)n1C (stereo not drawn)
  A: 101.7	B: 80.2	C: -14.7	D: 101.0

COc1cc(NC(=O)CCS(=O)(=O)c2nc(-c3ccc4c(c3)OCO4)cc(C(F)(F)F)n2)cc(OC)c1OC
  A: 107.4	B: 90.1	C: -19.1	D: 106.6

NC(=O)CSc1nccn(-c2ccc(Cl)cc2)c1=O
  A: nt	B: nt	C: -84.3	D: 101.2

Cc1ccccc1NC(=O)Nc1ccccc1N1CCCCC1
  A: 100.7	B: 80.0	C: 1.6	D: 99.5

COc1cccc(C(=O)Nc2ccc(-n3nncc3C(C)(C)C)cc2)c1
  A: 96.5	B: 53.6	C: nt	D: 100.7

CCc1c(C)sc2c1CCN(C(=O)Nc1ccc(F)c(Cl)c1)C2c1ccc(F)cc1 (stereo not drawn)
  A: 61.2	B: 70.9	C: nt	D: 102.0

Cc1c(C(=O)O)sc2ncnc(N3CCCCC3C)c12 (stereo not drawn)
  A: nt	B: nt	C: -20.3	D: 101.8

COc1ccc(C)cc1NC(=O)c1cc(S(=O)(=O)NCCC2=CCCCC2)ccc1F
  A: 143.1	B: 87.7	C: nt	D: 103.3

CCOC(=O)c1ccc(N2CCN(c3cc(Cl)ccc3C)CC2)c(NC(=O)Nc2ccc(OCC)cc2)c1
  A: 108.4	B: 85.2	C: nt	D: 105.5

Compound profiles, from the list above.
Listed for NC(=O)CSc1nccn(-c2ccc(Cl)cc2)c1=O = Sa growth inh: nt; Sa growth inh second temp: nt; HCMV UL50-53 inh: -84.3; GIV-Gai inh: 101.2
Listed for CC1=NN(C(=O)c2ccccc2)C(O)(C(F)(F)OC(F)(F)F)C1 (stereo not drawn) = Sa growth inh: 80.3; Sa growth inh second temp: 64.0; HCMV UL50-53 inh: -24.2; GIV-Gai inh: 100.7

The main list resumes with the two entries that preceded the break.
Labels used below: A = Sa growth inh; B = Sa growth inh second temp; C = HCMV UL50-53 inh; D = GIV-Gai inh
COc1ccc(C)cc1NC(=O)c1cc(S(=O)(=O)NCCC2=CCCCC2)ccc1F
  A: 143.1	B: 87.7	C: nt	D: 103.3

CCOC(=O)c1ccc(N2CCN(c3cc(Cl)ccc3C)CC2)c(NC(=O)Nc2ccc(OCC)cc2)c1
  A: 108.4	B: 85.2	C: nt	D: 105.5

O=C(NCc1cccc(Cl)c1)C1CCCN(c2nc3ncccc3n3cccc23)C1 (stereo not drawn)
  A: nt	B: nt	C: -24.2	D: 114.5

CN1C(=O)C(O)(c2nnc(-c3ccccc3)o2)c2ccccc21 (stereo not drawn)
  A: 88.9	B: 90.6	C: -20.4	D: nt

CN1C(=O)N(C)C2NC(SCC(=O)O)=NC21 (stereo not drawn)
  A: 105.3	B: 92.0	C: 2.7	D: nt

CC(C)CC(NC(=O)c1ccco1)C(=O)Nc1ccc2c(c1)OCCO2 (stereo not drawn)
  A: 91.2	B: 71.8	C: -27.1	D: 100.5

COc1ccc(-c2noc(N3CCN(c4ccc(C)cc4)C(C)C3)n2)cc1OC (stereo not drawn)
  A: 101.1	B: 89.7	C: nt	D: 102.5

O=C(Nc1ccc(OCc2ccccc2)cc1)OCC1CN(Cc2ccccc2)CCO1 (stereo not drawn)
  A: 108.1	B: 86.0	C: 5.5	D: 104.1

Cc1ccc(NC(=O)/C=C\C(=O)N(c2ccc(C(C)C)cc2)C(C(=O)NCc2ccco2)c2ccc(F)cc2)cc1 (stereo not drawn)
  A: 111.3	B: 84.3	C: nt	D: 100.0

O=C(OCc1ccccc1)c1nc2ccccc2nc1NCCc1ccccc1
  A: nt	B: nt	C: 0.0	D: 104.9

COc1cccc(Nc2cc(N3CCOCC3)c3nonc3c2[N+](=O)[O-])c1
  A: nt	B: nt	C: -28.7	D: 103.9

CCN(C(=O)C1CCCN(S(=O)(=O)c2c(C)noc2/C=C/N(C)C)C1)c1cccc(C)c1 (stereo not drawn)
  A: 89.6	B: 74.0	C: -18.6	D: 99.9

Clc1ccc2nc(-c3cccs3)cn2c1
  A: nt	B: nt	C: -13.2	D: 104.7

CSc1nc2ccc(NC(=O)CN3C(=O)c4ccccc4C3=O)cc2s1
  A: nt	B: nt	C: -15.9	D: 100.9

CCN1CCN(C(=O)c2ccccc2C(=O)Nc2ccc(S(=O)(=O)N3C(C)CCCC3C)cc2)CC1 (stereo not drawn)
  A: 106.3	B: 104.1	C: -1.7	D: 106.1

Cc1c(C)c(C)c(C(=O)/C=N/N)c(C)c1C
  A: 104.7	B: 88.8	C: -37.0	D: 100.1

CC(C)NC(=O)c1ccc2c(=O)n(CC3CCCO3)c(SCC(=O)c3ccc4c(c3)OCO4)nc2c1 (stereo not drawn)
  A: nt	B: nt	C: 12.3	D: 108.0

CN1C(=O)C[C@@H](C(=O)O)[C@@H]1c1ccccc1Cl
  A: 83.0	B: 91.0	C: 13.3	D: 103.4

Cc1ccc2oc(C(=O)Nc3ccc(S(=O)(=O)N4CCCCCC4)cc3)cc(=O)c2c1
  A: 97.0	B: 80.8	C: -27.3	D: 107.7

CCCCN(CC)C(=O)C1CCCN(c2ncnc3c2nc2n3CCCCC2)C1 (stereo not drawn)
  A: 101.5	B: 87.6	C: nt	D: 106.8

COC(=O)c1sc2nc3n(c(=O)c2c1C)N=C(c1cccc(OC)c1)CS3
  A: 84.8	B: 82.6	C: -29.8	D: 99.0

Nc1ncc(Br)cc1S(=O)(=O)NCCC(=O)Nc1ccc(Cl)cc1
  A: 90.1	B: 65.4	C: nt	D: 103.4

CN(Cc1ccccc1)C(=O)CN1C(=O)c2ccccc2C1=O
  A: 88.3	B: 83.2	C: -105.6	D: 104.4

O=C(CSc1ccc(-c2cccs2)nn1)Nc1cccc(F)c1
  A: 100.7	B: 85.8	C: nt	D: 100.6

COCc1nnc(NC(=O)COc2ccccc2-c2nc(-c3ccc(OC)cc3)no2)s1
  A: nt	B: nt	C: -12.6	D: 101.9

COc1ccc(CCNC(=O)CSc2nc3cc4c(cc3c(=O)n2Cc2ccco2)OCO4)cc1OC
  A: 103.5	B: 90.5	C: 9.0	D: 93.8

O=C(c1ccc(Cl)cc1)N1CCC(c2nc(-c3ccc(Cl)cc3)no2)CC1
  A: 109.8	B: 101.5	C: 1.9&-4.9	D: 98.8&104.2

CNc1ccc(Br)cc1-c1n[nH]c(=S)[nH]c1=O
  A: 99.6	B: 75.0	C: -18.8	D: 101.6

CCN(CC)c1ccc(C2N(C(=O)N3CCOCC3)CCN2S(=O)(=O)c2ccc(C)cc2)cc1 (stereo not drawn)
  A: 86.2	B: 78.2	C: -33.7	D: 102.0

Nc1c(-c2ccc(Cl)cc2)cnn1-c1ncc(C(F)(F)F)cc1Cl
  A: 104.2	B: 98.7	C: -7.0	D: 98.8

CCCCNc1nc(-c2cccc(OC)c2)no1
  A: 85.3	B: 75.6	C: -22.8	D: 101.2

Cc1ccc(Cl)cc1NC(=O)Nc1nnc(N2CCCC(C)C2)s1 (stereo not drawn)
  A: 95.1	B: 84.8	C: 5.8	D: 104.9

O=C1NN(c2ccccc2)C(=O)C2C3C=CC(C4CC34)C12 (stereo not drawn)
  A: 99.9	B: 77.0	C: -10.9	D: 101.9

CN1CCN(NC(=O)COc2ccc3c(c2)CCC3)CC1
  A: 98.9	B: 100.1	C: -7.0	D: 110.2

COc1ccccc1NC(=O)c1cccc(S(=O)(=O)N2CCCC2)c1
  A: 93.7	B: 88.2	C: nt	D: 99.5

Cc1csc2nc(CN3CCCC3c3cccs3)cc(=O)n12 (stereo not drawn)
  A: 104.0	B: 91.2	C: -15.2	D: nt

CCCC(O)c1nc2ccccc2n1CCOc1cccc(C)c1C (stereo not drawn)
  A: nt	B: nt	C: 1.3	D: 102.2

CC1(C)CC(=O)C2=C(C1)NC1=C(C(=O)CC(C)(C)C1)C2c1ccc2c(c1)OCO2
  A: 78.7	B: 100.9	C: -25.1	D: 98.3

Cc1ccc(N(CC(=O)Nc2cccc(Cl)c2)S(=O)(=O)c2cccs2)cc1
  A: 105.8	B: 102.6	C: 22.7	D: 105.5

Cc1ccc2oc(-c3nnc(C(=O)NCCc4sccc4C)o3)c(C)c2c1
  A: nt	B: nt	C: -26.1	D: 106.4

Cc1ccc(-c2c(Nc3ccccc3)oc3c2c(=O)n(C)c(=O)n3C)cc1
  A: nt	B: nt	C: -15.1	D: 105.1

COc1ccc(OC/C(N)=N/OC(=O)c2cc(C)on2)cc1
  A: 90.9	B: 89.1	C: -1.4	D: 102.9

O=C(Cn1c(=O)n(-c2ccc(Cl)cc2)c(=O)c2c3c(sc21)CCC3)c1ccccc1
  A: 104.5	B: 89.2	C: 14.6	D: 102.0

Cc1ccc(C(=O)CC(C(=O)c2ccc(C(F)(F)F)cc2)c2cccs2)cc1 (stereo not drawn)
  A: 102.7	B: 83.1	C: -31.0	D: 95.2

COc1cccc(NC(=O)Cn2c(=O)n(-c3ccc(C)cc3)c(=O)c3c2cnn3C)c1
  A: nt	B: nt	C: -18.9	D: 101.2

Cc1ccc(O)c(NC(=O)c2cc(-c3cccnc3)on2)c1
  A: nt	B: nt	C: 13.8	D: 101.4

CCC(C)(C)NCC(=O)Nc1ccc(OC(F)(F)F)cc1
  A: 108.0	B: 101.3	C: 1.5	D: nt

Cc1cc(S(=O)(=O)N2CCCCC2)c(C)c(C)c1C
  A: 110.2	B: 100.5	C: -0.8	D: 103.6

Cc1nn(C)c2nc(OC(C)C(=O)N3CCc4ccccc4C3)cc(C(F)(F)F)c12 (stereo not drawn)
  A: nt	B: nt	C: -29.6	D: 107.8

CC(=O)N1CCc2c(sc3nc(SCc4cccc(C)c4)n(-c4ccccc4)c(=O)c23)C1
  A: nt	B: nt	C: 18.4	D: 115.5

COc1ccc(NC(=O)COC(=O)Cn2cnc3ccccc3c2=O)c(OC)c1
  A: 89.6	B: 90.3	C: 2.7	D: nt

CCC(Sc1nc2ncccc2o1)C(=O)Nc1cccc(C)c1 (stereo not drawn)
  A: 86.9	B: 87.8	C: nt	D: 100.9

CN(Cc1nc(-c2ccccc2)no1)C(=O)N1CCOCC1
  A: 81.7	B: 89.5	C: 4.0	D: 101.0

O=C(COc1ccccc1F)Nc1nnc(SCc2cc(=O)c3ccccc3[nH]2)s1
  A: 102.3	B: 89.7	C: nt	D: 103.0

O=C(NN1C(=O)C2C3C=CC(C3)C2C1=O)c1ccncc1 (stereo not drawn)
  A: 98.9	B: 92.7	C: nt	D: 99.9

C=Cc1ccc(CN(c2nc3nc(C)cc(C)n3n2)S(=O)(=O)c2ccccc2)cc1
  A: nt	B: nt	C: 2.7	D: 106.3

COc1ccc(C(=O)Nc2ccc3c(c2)CCCN3C(=O)c2cccs2)c(OC)c1
  A: 90.3	B: 88.7	C: nt	D: 98.1

Cc1ccc2oc(=O)c3cc(C(=O)N4CCN(c5ccccc5F)CC4)sc3c2c1
  A: 101.5	B: 89.7	C: -27.2	D: 98.9

CC1(C)N=C(c2ccccc2)C(=S)N1
  A: 111.4	B: 78.4	C: nt	D: 102.2

O=C1CCC(=O)N1c1ccc(OC(F)(F)F)cc1
  A: 102.1	B: 101.6	C: -3.8	D: 101.3

COc1ccc(-n2c(C)nc(=O)c(-c3ccccc3)c2C)cc1
  A: 83.0	B: 102.0	C: -25.1	D: 101.1

Of the compounds above, 4 have an NH in an aromatic ring.
Labels used below: A = Sa growth inh; B = Sa growth inh second temp; C = HCMV UL50-53 inh; D = GIV-Gai inh
Brc1ccc(-c2[nH]c(-c3cccnc3)nc2-c2ccccc2)cc1
  A: nt	B: nt	C: -16.1	D: 101.5

CCC(C)NC(=O)Cc1n[nH]c(=O)c2ccccc12 (stereo not drawn)
  A: 110.7	B: 99.9	C: 7.3	D: nt

CNc1ccc(Br)cc1-c1n[nH]c(=S)[nH]c1=O
  A: 99.6	B: 75.0	C: -18.8	D: 101.6

O=C(COc1ccccc1F)Nc1nnc(SCc2cc(=O)c3ccccc3[nH]2)s1
  A: 102.3	B: 89.7	C: nt	D: 103.0
